Screens (PubChem BioAssay)
Insulin prom inh: TRM-6 insulin promoter activity inhibition; TRM-6 cells (human fetal islet line), insulin promoter-eGFP reporter, imaging; reporter expression induced with tamoxifen; inhibition, % at 2 µM; 130,000 compounds, 0.9% hits; AID 1273;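 active means inhibition above the mean plus 3 SD, with well images judged a real hit on visual review, cut at about 60% in these data, passing the limit was not always enough; inconclusive means inhibition over the cutoff but images rejected on review; inactive means inhibition not above the cutoff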
RGS16-Gao: RGS16-Galphao interaction regulator (human) | O15492+P09471 | bead-based flow cytometry RGS16-Galphao binding, fluorescence; actives lie on both sides | binding response (% of control), % at 10 µM | 220,000 compounds, 0.38% hits | AID 1441;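 active means below 25% or above 175%, edge rows of some plates excepted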;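 further: Galphao activated by GDP with aluminum fluoride before binding; 100% = wells without compound and 0% = beads without RGS; some results beyond the cut were filed as inactive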
Target sequence (O15492 whole entry, looked up): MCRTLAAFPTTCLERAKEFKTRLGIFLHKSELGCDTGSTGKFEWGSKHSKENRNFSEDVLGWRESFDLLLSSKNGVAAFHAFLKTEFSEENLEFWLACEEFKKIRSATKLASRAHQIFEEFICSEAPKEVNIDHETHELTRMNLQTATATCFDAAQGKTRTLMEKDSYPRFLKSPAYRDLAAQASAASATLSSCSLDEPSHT
Target sequence (P09471 whole entry, looked up): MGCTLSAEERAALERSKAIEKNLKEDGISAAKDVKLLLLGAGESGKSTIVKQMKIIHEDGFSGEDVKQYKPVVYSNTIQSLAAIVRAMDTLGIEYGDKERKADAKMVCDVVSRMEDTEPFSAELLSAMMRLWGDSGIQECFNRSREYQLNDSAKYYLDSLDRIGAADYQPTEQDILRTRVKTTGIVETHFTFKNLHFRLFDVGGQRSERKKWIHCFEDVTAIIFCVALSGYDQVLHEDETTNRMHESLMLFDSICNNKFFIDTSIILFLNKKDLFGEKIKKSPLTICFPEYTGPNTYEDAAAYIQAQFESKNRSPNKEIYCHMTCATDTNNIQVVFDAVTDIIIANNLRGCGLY
GALR2 agonist: GALR2 (human) receptor agonism | GALR2-expressing cells, agonist activation read-out | 140,000 compounds, 0.48% hits | AID 803 | activation, %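 (tested at 5 µM)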 | O43603;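 active means above mean plus 3 SD of all compounds, about 5% in these data, not always enough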;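 further: 0% = vehicle buffer wells and 100% = reference agonist at full effect; tested in CHO reporter cells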
Target sequence (O43603 whole entry, looked up): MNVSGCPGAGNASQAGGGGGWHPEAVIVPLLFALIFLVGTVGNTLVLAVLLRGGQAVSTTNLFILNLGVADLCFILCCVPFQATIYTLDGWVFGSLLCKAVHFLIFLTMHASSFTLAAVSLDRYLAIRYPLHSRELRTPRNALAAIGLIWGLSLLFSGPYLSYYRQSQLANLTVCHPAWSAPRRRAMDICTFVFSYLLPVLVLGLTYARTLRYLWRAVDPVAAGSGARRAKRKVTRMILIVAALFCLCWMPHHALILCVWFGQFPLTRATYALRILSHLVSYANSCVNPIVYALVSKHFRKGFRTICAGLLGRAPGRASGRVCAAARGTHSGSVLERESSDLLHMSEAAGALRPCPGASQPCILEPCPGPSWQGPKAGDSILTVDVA
PKD1 inh: inhibitors of human PKD1 kinase. Q15139. PKD1 kinase fluorescence polarization assay. inhibition, %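 (about 10 µM by stock and volumes)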. 200,000 compounds, 0.056% hits. AID 797;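 active means inhibition of 50% or more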;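 further: controls were vehicle for no effect and a reference inhibitor for full effect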
HSV augment: HSV replication enhancement. HSV replication augmentation in cells, fold increase. maximum fold increase. 220,000 compounds, 0.005% hits. AID 1956;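 active means peak rise of 1.5-fold or more in the series; inconclusive means self-fluorescent or not available for retest; tested in PC3 cells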;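 further: first round at 10 µM; read as green reporter fluorescence; hits show the peak of a series up to 25 µM; 1 = signal of infected wells without compound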
Insulin prom inh cell count: second read-out of Insulin prom inh, no call of its own (marks repeat the call); normalized cell count, %; measured here: cell count, toxicity; reference of the scale not given here;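 cells exposed to compound for 48 h; stained nuclei by imaging scaled within each plate; lower means fewer cells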
HSV augment primary fold: also measured in HSV augment; calls as there; fold increase; compound at 10 µM; measured here: primary screen fold increase 10 uM; tested in PC3 cells;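 GFP signal in the first replicate; 1 = infected wells without compound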
The depositor's hits bear a star.

COC(=O)c1[nH]c2ccc(C)cc2c1NC(=O)CN1CCN(c2ccc(F)cc2)CC1 was read as RGS16-Gao 105, GALR2 agonist -1.6, PKD1 inh -8, HSV augment inactive and HSV augment primary fold 1.
For CCCOC(=O)c1ccc(OC(=O)c2ccco2)cc1 the results were Insulin prom inh 0, RGS16-Gao inactive, GALR2 agonist -1.6, PKD1 inh -1, HSV augment inactive, Insulin prom inh cell count 112 and HSV augment primary fold 1.1.
Screening CCCC(=O)Nc1ccc(C(=O)NN2C(=O)c3ccccc3C2=O)cc1 returned RGS16-Gao 108, GALR2 agonist -0.5, PKD1 inh -3, HSV augment inactive and HSV augment primary fold 0.95.
For O=C(CNc1cccc2ccccc12)N/N=C/c1ccc[nH]1 the results were RGS16-Gao 98, HSV augment inactive and HSV augment primary fold 0.62.
For Nc1nnn(CC(=O)N/N=C/c2ccc(O)cc2)n1 the results were RGS16-Gao 102, HSV augment inactive and HSV augment primary fold 1.1.
CC(C)(C)Nc1nc(SCc2ccccc2)nc(N2CCOCC2)n1 was read as Insulin prom inh 66, RGS16-Gao 101, GALR2 agonist -1.6, PKD1 inh -5, HSV augment inactive, Insulin prom inh cell count 133 and HSV augment primary fold 0.91.
For COc1ccc(-n2c(SCC(=O)N3CCCCC3)nnc2-c2cccnc2)cc1 the results were RGS16-Gao 101, GALR2 agonist -2.3, PKD1 inh 3, HSV augment inactive and HSV augment primary fold 0.83.
`N#CCN1CCN(CC(=O)Nc2cccc3ccccc23)CC1` gave Insulin prom inh -57, RGS16-Gao 91, GALR2 agonist -2.5, PKD1 inh -11, HSV augment inactive, Insulin prom inh cell count 150 and HSV augment primary fold 1.1.
Screening Cc1nn2c(N3CCCC3)c3c(nc2c1-c1ccccc1)CCC3 returned RGS16-Gao 102, HSV augment inactive and HSV augment primary fold 0.96.
For COC(=O)c1ccc2c(=O)n(CCCCCC(=O)NCc3ccccn3)c(=O)[nH]c2c1 the results were RGS16-Gao 100, GALR2 agonist -0.2, PKD1 inh -11, HSV augment inactive and HSV augment primary fold 0.83.
`CCOC(=O)/C(C#N)=C/c1ccc(OCC(=O)Nc2ccccc2)c(OC)c1` gave RGS16-Gao 98, GALR2 agonist -1.3, PKD1 inh 7 and HSV augment inconclusive.
For CCS(=O)(=O)Nc1ccc(C2=NN(C(=O)c3ccco3)C(c3cccc(F)c3)C2)cc1 (centres undefined) the results were RGS16-Gao 101, PKD1 inh -4, HSV augment inactive and HSV augment primary fold 0.88.
For CCOc1ccc(CCNC(=O)C2CCC(=O)N2C2CCCCC2)cc1OCC (centres undefined) the results were Insulin prom inh -38, RGS16-Gao 99, GALR2 agonist -0.6, PKD1 inh -5, HSV augment inactive, Insulin prom inh cell count 76 and HSV augment primary fold 1.2.
`Cc1ccc(S(=O)(=O)Cn2nnnc2CN2CCN(C(=O)c3ccco3)CC2)cc1` gave RGS16-Gao 103, GALR2 agonist 0.2 and PKD1 inh -5.
CC(=O)OC1COC(OC2C(O)C(C)OC(OC3C(OC4CCC5(C)C(CCC6(C)C5CC=C5C7CC(C)(C)CCC7(C(=O)O)CCC56C)C4(C)CO)OCC(O)C3O)C2O)C(O)C1OC(C)=O (centres undefined) was read as RGS16-Gao 104, PKD1 inh 2, HSV augment inactive and HSV augment primary fold 0.99.
Cc1cccc(-c2c3c(=O)n(C)c(=O)n(C)c3cn2CCO)c1 was read as RGS16-Gao 105, GALR2 agonist -1.4, PKD1 inh -7, HSV augment inactive and HSV augment primary fold 1.1.
Screening CCOC(=O)c1cc(-c2cccc([N+](=O)[O-])c2)on1 returned RGS16-Gao 103, PKD1 inh 5, HSV augment inactive and HSV augment primary fold 1.
For COc1ccc(-c2cc3ccccc3oc2=O)cc1NC(=O)c1ccc(Br)o1 the results were RGS16-Gao 149, GALR2 agonist -1.1, PKD1 inh 0, HSV augment inactive and HSV augment primary fold 0.97.
`COc1ccc(C(=O)NC(=S)N2CC(C)OC(C)C2)cc1OC` (centres undefined) gave RGS16-Gao 105, PKD1 inh -2, HSV augment inactive and HSV augment primary fold 0.94.
Clc1ccccc1CSc1nnc([C@@H]2CCCN2)o1 was read as RGS16-Gao 92, HSV augment inactive and HSV augment primary fold 0.89.
For CC(=O)c1c(C)oc2ccc(N(C(C)=O)S(=O)(=O)c3cccc4cccnc34)cc12 the results were RGS16-Gao 108, HSV augment inactive and HSV augment primary fold 0.84.
Cc1ccc(S(=O)(=O)c2cn(CC(=O)Nc3ccccc3)c3ccc(F)cc3c2=O)cc1 was read as Insulin prom inh 10, RGS16-Gao 80, GALR2 agonist -0.1, PKD1 inh -8 and Insulin prom inh cell count 136.
For Cc1ccc(Cn2c(SCC(=O)NCc3ccco3)nc3ccsc3c2=O)cc1 the results were RGS16-Gao 91, GALR2 agonist -3.9, PKD1 inh -17, HSV augment inactive and HSV augment primary fold 0.84.
For Cc1ccc(Nc2ncc3c(n2)CC(C)(C)CC3=O)cc1 the results were RGS16-Gao 102, PKD1 inh 1, HSV augment inactive and HSV augment primary fold 0.89.
For Cc1ccc2[nH]c(=O)c(CN(CCCO)C(C)c3nnnn3Cc3ccco3)cc2c1 (centres undefined) the results were RGS16-Gao 94, HSV augment inactive and HSV augment primary fold 1.
Screening Cc1cc(C=O)c(C)n1-c1cccc(C(=O)O)c1 returned Insulin prom inh 0, RGS16-Gao 101, PKD1 inh -6, HSV augment inactive, Insulin prom inh cell count 126 and HSV augment primary fold 1.1.
Screening O=S(=O)(/N=C(/Nc1ccccn1)c1ccccc1)c1ccc(Cl)cc1 returned Insulin prom inh 21, RGS16-Gao 111, GALR2 agonist -0.2, PKD1 inh -9, HSV augment inactive, Insulin prom inh cell count 56 and HSV augment primary fold 0.98.
`CCOC(=O)C1CCCN(C(=O)CC(c2ccccc2)c2ccccc2)C1` (centres undefined) gave Insulin prom inh -475, RGS16-Gao 101, GALR2 agonist -2.5, PKD1 inh -1, HSV augment inactive, Insulin prom inh cell count 30 and HSV augment primary fold 1.
Screening CCCCCCC(c1c(C)n(C)n(-c2ccccc2)c1=O)c1c(C)n(C)n(-c2ccccc2)c1=O returned Insulin prom inh -19, RGS16-Gao 77, GALR2 agonist -0.9, PKD1 inh -10, HSV augment inactive, Insulin prom inh cell count 85 and HSV augment primary fold 0.96.
`O=C(Oc1cccc(O)c1)C1CCCCC1` gave RGS16-Gao 98, PKD1 inh -3, HSV augment inactive and HSV augment primary fold 0.86.

4 entries drawn at random from those above:
`CCOC(=O)C1CCCN(C(=O)CC(c2ccccc2)c2ccccc2)C1` (centres undefined) gave Insulin prom inh -475, RGS16-Gao 101, GALR2 agonist -2.5, PKD1 inh -1, HSV augment inactive, Insulin prom inh cell count 30 and HSV augment primary fold 1.
For COc1ccc(-n2c(SCC(=O)N3CCCCC3)nnc2-c2cccnc2)cc1 the results were RGS16-Gao 101, GALR2 agonist -2.3, PKD1 inh 3, HSV augment inactive and HSV augment primary fold 0.83.
For CCS(=O)(=O)Nc1ccc(C2=NN(C(=O)c3ccco3)C(c3cccc(F)c3)C2)cc1 (centres undefined) the results were RGS16-Gao 101, PKD1 inh -4, HSV augment inactive and HSV augment primary fold 0.88.
Screening Cc1nn2c(N3CCCC3)c3c(nc2c1-c1ccccc1)CCC3 returned RGS16-Gao 102, HSV augment inactive and HSV augment primary fold 0.96.

The results go on:
Screening CCOC(=O)c1ccc(-n2c(CN3CCN(CCO)CC3)nc3ccc([N+](=O)[O-])cc3c2=O)cc1 returned RGS16-Gao 101, PKD1 inh 3, HSV augment inactive and HSV augment primary fold 0.97.
`O=C(CCc1nnc(CCCCc2ccccc2)o1)NCCc1cccnc1` gave RGS16-Gao 101, PKD1 inh -2, HSV augment inactive and HSV augment primary fold 1.1.
`COC(=O)CSc1nnc(CNC(=O)c2ccccc2OC)n1-c1ccc(OC)cc1` gave RGS16-Gao 104, GALR2 agonist -1.5, PKD1 inh -9, HSV augment inactive and HSV augment primary fold 0.99.
Screening C/C(=N\NC(=O)c1ccc(Cn2cc([N+](=O)[O-])cn2)o1)c1cccc(NC(=O)c2cccnc2)c1 returned Insulin prom inh 0, RGS16-Gao 103, GALR2 agonist -0.4, PKD1 inh -4, HSV augment inactive, Insulin prom inh cell count 129 and HSV augment primary fold 0.84.
Screening Cc1cc(-n2c(C)cc(C(=O)CSc3ncnc4ccccc34)c2C)no1 returned RGS16-Gao 101, GALR2 agonist -1.8, PKD1 inh 1, HSV augment inactive and HSV augment primary fold 1.1.
`Cc1cc(C(C)(C)C)c(O)c(C(C)(C)C)c1` gave Insulin prom inh 27, RGS16-Gao 108, PKD1 inh 0, HSV augment inactive, Insulin prom inh cell count 94 and HSV augment primary fold 0.89.
COc1cc(OC)cc(C(C(=O)NC2CCCCC2)N(C(=O)c2ccno2)c2ccccc2)c1 (centres undefined) was read as Insulin prom inh 27, RGS16-Gao 102, GALR2 agonist -3.6, PKD1 inh -2 and Insulin prom inh cell count 120.
Screening COc1cc(-c2nc3ccc4ccccc4c3c3c2CCC3)cc(OC)c1OC returned RGS16-Gao 99, GALR2 agonist -2.7, PKD1 inh -4, HSV augment inactive and HSV augment primary fold 0.94.
`CCOC(=O)Nc1ccc2c(c1)N(C(=O)N1CCN(C)CC1)c1ccccc1S2` gave RGS16-Gao 100, GALR2 agonist -1.6, PKD1 inh -1, HSV augment inactive and HSV augment primary fold 0.76.
Screening CCN(CCCNC(=O)C1CCCN(S(=O)(=O)c2cnc[nH]2)C1)c1ccccc1 (centres undefined) returned RGS16-Gao 97, GALR2 agonist 0.8, PKD1 inh -6, HSV augment inactive and HSV augment primary fold 0.92.
Oc1ccc2ccccc2c1C=Nc1ccc(Cl)cn1 was read as RGS16-Gao 135, PKD1 inh 3, HSV augment inactive and HSV augment primary fold 1.1.
For CCOC(=O)c1c(C)oc2ccc(OC(=O)COc3c(F)c(F)c(F)c(F)c3F)cc12 the results were Insulin prom inh 39, RGS16-Gao 107, GALR2 agonist 0.1, PKD1 inh 22, HSV augment inactive, Insulin prom inh cell count 69 and HSV augment primary fold 0.94.
O=C(C[n+]1cc(-c2ccc(F)cc2)n2c1CCC2)OCc1ccccc1 was read as Insulin prom inh 36, RGS16-Gao 93, GALR2 agonist -0.4, PKD1 inh -6, HSV augment inactive, Insulin prom inh cell count 145 and HSV augment primary fold 0.91.
`Cc1cc(C)n(-c2nc3sc4c(c3c(=O)[nH]2)CCCC4)n1` gave Insulin prom inh -4, RGS16-Gao 97, GALR2 agonist -3.0, PKD1 inh 1 and Insulin prom inh cell count 119.
Screening COc1ccc(C(=O)OCc2csc(C)n2)c(O)c1 returned Insulin prom inh -29, RGS16-Gao 77, PKD1 inh -2, HSV augment inactive, Insulin prom inh cell count 59 and HSV augment primary fold 1.1.
Screening CCOC(=O)CNC(=O)c1ccc(SCC)cc1 returned RGS16-Gao 103, HSV augment inactive and HSV augment primary fold 0.98.
CCOC(=O)N1CCN(C(=O)C(CC(C)C)NC(=O)C2CCCCC2)CC1 (centres undefined) was read as Insulin prom inh 25, RGS16-Gao 102, GALR2 agonist -2.1, PKD1 inh 0, HSV augment inactive, Insulin prom inh cell count 89 and HSV augment primary fold 0.96.
For O=C(O)/C=C/c1cn(-c2ncc(C(F)(F)F)cc2Cl)c2ccccc12 the results were Insulin prom inh -56, RGS16-Gao 118, GALR2 agonist -2.8, PKD1 inh -7, HSV augment inactive, Insulin prom inh cell count 90 and HSV augment primary fold 0.98.
For Cc1cc(C(=O)OCC(=O)Nc2cc(S(=O)(=O)N(C)C)ccc2C)c(C)o1 the results were RGS16-Gao 98, PKD1 inh 3, HSV augment inactive and HSV augment primary fold 0.93.
For O=C(NC(=S)N1CCN(C/C=C/c2ccccc2)CC1)c1ccc(Cl)nc1 the results were RGS16-Gao 97, HSV augment inactive and HSV augment primary fold 0.96.
Screening CCc1nnc(NC(=O)c2cc(-c3ccco3)nc3ccccc23)s1 returned Insulin prom inh 0, RGS16-Gao 108, PKD1 inh 0, HSV augment inactive, Insulin prom inh cell count 113 and HSV augment primary fold 1.
`COc1ccc2oc(=O)c(C(=O)N3CCN(c4ccccc4F)CC3)cc2c1` gave Insulin prom inh 3, RGS16-Gao 103, GALR2 agonist -2.3, PKD1 inh -1, HSV augment inactive, Insulin prom inh cell count 106 and HSV augment primary fold 1.1.
For Fc1ccc(/C=N/Nc2nc3ccccc3[nH]2)cc1F the results were Insulin prom inh 41, RGS16-Gao 100, PKD1 inh -8, HSV augment inactive, Insulin prom inh cell count 93 and HSV augment primary fold 0.94.
Screening COc1ccccc1C/C(N)=N/OC(=O)COc1ccccc1C returned RGS16-Gao 108, GALR2 agonist -2.9, PKD1 inh -1, HSV augment inactive and HSV augment primary fold 0.9.
